Mtb hypoxia inh – reduces hypoxia-regulated biosensor signal in M. tuberculosis. M. tuberculosis hypoxia-regulated fluorescent reporter, fluorescence. fluorescence inhibition, % (no concentration beside the values). hit rate 0.1% among 300,000;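 active = 35 to 45% if threefold the growth effect, above 45% if 1.5-fold the growth effect; inactive = the rest, general growth blockers included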;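 also: wells of about 50 µL received 100 nL stock; 0% = vehicle wells and 100% = reference inhibitor wells; whole bacteria with a GFP reporter of the hypoxia response; strong numbers were not always called active; many hits fall short of the cut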
BJeLR lethal – BJeLR cell viability loss | BJeLR (HRASV12) viability, CellTiter-Glo ATP luminescence, 48 h; reference of the scale not given here | inhibition, % (no concentration beside the values) | hit rate 0.17% among 300,000 | AID 1554;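 active = replicate mean above 50%; inconclusive = above 50% but judged a plate artefact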;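 also: 50 nL library stock added to about 25 µL; numbers are from one replicate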
Autofluor counter – flagged as autofluorescent in microsphere protease counterscreen | fluorescence intensity (test concentration not listed) | hit rate 3.1% among 360,000 | compound autofluorescence counterscreen, microsphere flow cytometry; active compounds read high | AID 624483;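 active = at least 3 SD above the mean of all compounds, about 16000 in these data; inconclusive = too few beads counted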;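 also: 100 nL of 1 mM stock went into each well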
RN4220 kill – S. aureus RN4220 growth inhibition | OD600, 16 h | AID 1259311 | hit rate 0.33% among 330,000 | inhibition, % (no concentration beside the values);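 active = z-score of -3 or lower and OD600 up to 0.18 on both plates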;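 also: plate controls were untreated cells for no effect and reference antibiotic for full effect; stock transfer was 100 nL into about 80 µL; one replicate is shown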
ugtP null kill – kills S. aureus RN4220 lacking UgtP. hit rate 0.54% among 330,000. S. aureus RN4220 ugtP deletion, OD600 growth, 16 h; some inactives read as strong as hits. growth inhibition, % (test concentration not listed);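 active = z-score under -3 and OD600 up to 0.15 on both plates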;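 also: plate controls were untreated wells for no effect and antibiotic for full effect; wells of about 80 µL received 100 nL stock; the first replicate is given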
PrP 5UTR inh – inhibition of PrP 5' UTR reporter expression; cell-based PrP 5' UTR mRNA reporter, plate reader; inhibition, % (concentration not given with the values); hit rate 0.35% among 340,000;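 active = every replicate at 50% or more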;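 also: 0 = median of the neutral control wells; tested in H4 reporter cells; numbers are from one replicate; inactives centre near -14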
Mtb hypoxia inh growth – further read-out of Mtb hypoxia inh, marked with its call; growth inhibition, %; measured here: M. tuberculosis growth (absorbance);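 0% = vehicle and 100% = reference antibiotic; read after six days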
Numbers without * were called inactive; ? = inconclusive; nt = no result given.

SMILES	Mtb hypoxia inh	Mtb hypoxia inh growth	BJeLR lethal	Autofluor counter	RN4220 kill	ugtP null kill	PrP 5UTR inh
CCc1ccc2c(CN(C)Cc3ccccc3OC)cc(=O)oc2c1	16	3	-3	4026	5.0	6	-20
CCOC(=O)c1c(NC(=O)C2=C(C)NC(=S)NC2c2ccc(C)cc2)sc(C)c1C (configuration not stated)	10	3	-14	10661	1.1	-20	-11
O=C(NCC1CCCO1)C1CCC(=O)N1Cc1ccccc1Cl (configuration not stated)	-3	-4	6	2457	18	17	2
CC(=O)c1ccc(NC(=O)CSc2ccc(-c3ccc(-n4cccn4)cc3)nn2)cc1	2	1	3	6009	2.3	1	-38
COCCn1c(Cc2cccn2C)nnc1SCC(=O)NCc1ccc2c(c1)OCO2	4	4	5	2721	4.2	5	-33
C=CCn1c(O)c(/C(C)=N/NC(=S)Nc2ccccc2)c(=O)[nH]c1=O	13	1	6	5397	2.7	-1	-18
Cn1cnnc1SCC(=O)Nc1ccc2ccccc2c1	11	3	nt	3672	-0.5	3	-80
O=C(Nc1ccccn1)c1ccc(Cl)c(S(=O)(=O)N2CCOCC2)c1	2	-5	-3	4333	0.7	5	-22
Oc1ccc(/C=N/N2CCCCC2)c(O)c1	nt	nt	7	3051	nt	nt	-36
CC(=O)NCC(=O)OCC(=O)c1ccc(C)c(C)c1	-8	4	0	9982	1.0	-4	-5
CN(C)S(=O)(=O)c1ccc(Cl)c(NC(=O)COC(=O)/C=C/c2cnc3ccccc3n2)c1	-5	-5	-6	5955	1.1	7	-11
CCO/C=C1/C(=O)N(CC)c2ccccc21	8	5	-2	3494	4.8	12	-8
Cc1ccc(S(=O)(=O)N2CCC[C@H]2C(=O)OCc2nc3ccccc3s2)cc1	9	-2	nt	3927	7.0	7	-19
C[C@@]12CCC3[C@@](CCC4[C@@]3(C)CCC[C@@]4(C)C(=O)O)(CC1NCc1ccccc1)C2 (some centres not stated)	12	8	nt	nt	7.3	2	nt
O=C1c2cccc3c(N4CCCCC4)ccc(c23)C(=O)N1c1ccccn1	21	12	-8	3209	-13	-5	-28
CCCc1cc(C(=O)Nc2cc(Br)ccc2O)no1	-4	10	-10	6979	-4.5	-13	-45
CC1Cc2cc(/C(O)=C3/C(=O)C(=O)N(Cc4ccncc4)C3c3ccc(N(C)C)cc3)ccc2O1 (configuration not stated)	nt	nt	1	5008	nt	nt	-11
COc1cc(OC)c(-c2nc3ccccc3s2)cc1OC	9	8	7	4925	16	14	-47
COc1ccccc1CN1CCNC(=O)C1CC(=O)NCCc1cnccn1 (configuration not stated)	-1	2	0	3820	1.5	10	-3
CCOc1ccccc1N1CCN(C(=O)c2c(C)noc2C)CC1	7	14	-3	10387	3.2	9	-3
CCOCCCN(C)C1CCN(C(=O)c2oc3ccccc3c2NC(=O)COc2ccc(F)cc2)CC1	17	7	-2	4801	1.3	4	-77
Cc1ccc(C2(c3ccccc3)NC(=O)N(CC(=O)NC3(C#N)CCCC3)C2=O)cc1C (configuration not stated)	-8	9	nt	3942	-1.5	-6	-20
COc1ccc(-c2nc3n(c(=O)c2C#N)CCS3)cc1	11	5	-4	4152	2.6	8	-8
COC(=O)C(Cc1ccccc1)NC(=O)c1ccc(NS(=O)(=O)c2ccc3[nH]c(=O)[nH]c3c2)cc1 (configuration not stated)	19	41	nt	3980	1.5	5	-3
COC(=O)Sc1nc(N2CCOCC2)c2c(c1C#N)CC(C)(C)OC2	nt	nt	-7	4490	-0.3	4	-14
CN1C(=O)SC(Nc2cccc3ccccc23)C1=O (configuration not stated)	12	17	10	3387	-14	-9	-28
Cn1c(=O)c2cn(-c3ccccc3)cc2n(C)c1=O	nt	nt	1	4146	1.3	-2	-11
CCOC(=O)c1c(-c2ccc(C)o2)csc1NC(=O)CN(C)CC(=O)Nc1ccc(C)cc1	4	2	-2	20236*	5.5	-17	-24
Cc1nc2c(C(=O)NCCc3ccccc3Cl)c[nH]n2c(=O)c1Cl	12	-2	4	7458	8.7	16	-2
COc1ccc(NC(=O)C2CCCN2C(=O)Nc2cccc(F)c2)cc1 (configuration not stated)	-5	-6	-3	3527	0.5	0	-5
C[C@]12CCC3C(CC[C@H]4C[C@H](O)CC[C@]34C)C1[C@@H](O)[C@@H](O)[C@@H]2O (some centres not stated)	8	7	nt	4207	5.8	10	-18
COc1cccc(OC)c1CN(C)C(=O)c1cnccc1C(F)(F)F	8	-3	-6	4503	2.8	6	nt
COc1cccc(N2CC(C)Cn3c2nc2c3c(=O)[nH]c(=O)n2C)c1 (configuration not stated)	2	-5	-1	3653	2.3	-6	-19
CCOc1ccc(NC(=S)NC(=O)/C=C/c2ccc(OC)c(OC)c2)c([N+](=O)[O-])c1	4	4	-9	3147	10	0	-2
CCOC(=O)N1CCN(CC(O)COC(CC)c2ccccc2)CC1 (configuration not stated)	nt	nt	-1	2881	-1.6	1	-16
CCN(C(=O)c1cc(S(=O)(=O)N2CCCCC2)c[nH]1)c1ccc(OC)cc1	3	1	20	5914	1.7	11	42

Continued; it opens with the 2 that closed the last part.
SMILES	Mtb hypoxia inh	Mtb hypoxia inh growth	BJeLR lethal	Autofluor counter	RN4220 kill	ugtP null kill	PrP 5UTR inh
CCOC(=O)N1CCN(CC(O)COC(CC)c2ccccc2)CC1 (configuration not stated)	nt	nt	-1	2881	-1.6	1	-16
CCN(C(=O)c1cc(S(=O)(=O)N2CCCCC2)c[nH]1)c1ccc(OC)cc1	3	1	20	5914	1.7	11	42
Cc1ccc(S(=O)(=O)Nc2cc(C(=O)NCCN3CCCC3)ccc2N2CCCCC2)cc1	12	8	5	2942	-3.4	1	4
Cc1cc(N/C(=N/S(=O)(=O)c2cc(F)ccc2F)c2ccccc2)n(-c2ccccc2)n1	18	12	1	5291	4.0	3	-17
COc1ccccc1N1CSC2=C(C#N)C(c3ccc(SC)cc3)CC(=O)N2C1 (configuration not stated)	3	10	-6	5574	-9.7	-9	-11
S=C(N/N=C/c1ccccc1Cl)Nc1cccc(Cl)c1Cl	nt	nt	12	4612	nt	nt	-29
C=CCNC(=O)c1ccc2c(c1)nnn2C	8	-9	-10	6525	-2.7	2	-7
O=C(Cc1ccccc1)Nc1cccc(-c2nc3ncccc3o2)c1	nt	nt	0	4846	-4.0	0	-12
Cc1ccc(NC(=O)CCC(=O)O)cc1F	2	4	-12	10915	3.5	-10	-15
Cc1nc2ccc(NS(=O)(=O)c3c(F)cccc3F)cc2s1	9	0	nt	4011	7.1	10	-21
CN(C)CC/C=C1\c2cc(F)ccc2CSc2ccccc21	18	4	14	2620	0.2	13	-13
Cc1cccc(NC2=C(NCCO)C(=O)c3ccccc3C2=O)c1	9	12	-21	2389	19	5	-8
O=C(CSc1nc(Nc2ccccc2)nc(N2CCOCC2)n1)Nc1cc(Cl)ccc1O	0	22	2	?	-5.4	-28	-5
COc1ccc(OC)c(N(CC(=O)N2CCCC2)S(=O)(=O)c2ccc(OC)c(OC)c2)c1	-1	-3	-15	6606	4.9	0	-7
COc1ccc(OC)c(C2NC(=O)c3sc(=S)n(-c4ccccc4)c3N2)c1 (configuration not stated)	2	4	0	6427	0.1	-16	-5
Cc1ccc(C=NN2CCN(Cc3cccc4ccccc34)CC2)s1	-1	4	nt	nt	-0.1	11	nt
N#Cc1cccc(C(c2nnnn2Cc2ccccc2)N2CCCC2)c1 (configuration not stated)	9	2	0	8245	1.2	4	-21
O=C(CSc1ccc(-c2ccccc2)nn1)N1CCCc2ccccc21	3	0	-12	6974	17	8	-23
COc1cccc(N2CCN(S(=O)(=O)c3ccc4ccccc4c3)CC2)c1	8	-9	nt	4243	-1.5	5	1
CCN1C(=O)N(c2ccc(C(C)=O)cc2)S(=O)(=O)c2ccccc21	10	4	-4	3469	1.6	5	-4
Cc1ccc(CNS(=O)(=O)c2ccc(-c3cnc(C4CC4)o3)cc2)cc1	-3	-10	-1	4927	8.5	-5	-24
COC(=O)c1ccc(NC(=O)c2ccc3nccnc3c2)cc1	-10	0	-8	3529	2.2	-2	-22
COc1ccc(Cc2nnc(NC(=O)c3ccc(OC)c(OC)c3)s2)cc1OC	10	6	3	4416	6.3	5	-25
COc1ccccc1-c1ccc(SCC(=O)NCc2ccc3c(c2)OCO3)nn1	9	7	-11	4196	-1.1	14	-14
COc1ccc(-c2sc(Nc3ccccc3)n[n+]2-c2ccc(F)cc2)c(C)c1C	1	14	11	3517	-3.2	-43	5
O=C(CN1C(=O)c2ccccc2S1(=O)=O)NCCSCc1cccc(Cl)c1	7	5	10	2999	-2.5	-6	-6

A stretch from the list above:
SMILES	Mtb hypoxia inh	Mtb hypoxia inh growth	BJeLR lethal	Autofluor counter	RN4220 kill	ugtP null kill	PrP 5UTR inh
Cc1nc2ccc(NS(=O)(=O)c3c(F)cccc3F)cc2s1	9	0	nt	4011	7.1	10	-21
CN(C)CC/C=C1\c2cc(F)ccc2CSc2ccccc21	18	4	14	2620	0.2	13	-13
Cc1cccc(NC2=C(NCCO)C(=O)c3ccccc3C2=O)c1	9	12	-21	2389	19	5	-8
O=C(CSc1nc(Nc2ccccc2)nc(N2CCOCC2)n1)Nc1cc(Cl)ccc1O	0	22	2	?	-5.4	-28	-5
COc1ccc(OC)c(N(CC(=O)N2CCCC2)S(=O)(=O)c2ccc(OC)c(OC)c2)c1	-1	-3	-15	6606	4.9	0	-7
COc1ccc(OC)c(C2NC(=O)c3sc(=S)n(-c4ccccc4)c3N2)c1 (configuration not stated)	2	4	0	6427	0.1	-16	-5
Cc1ccc(C=NN2CCN(Cc3cccc4ccccc34)CC2)s1	-1	4	nt	nt	-0.1	11	nt
N#Cc1cccc(C(c2nnnn2Cc2ccccc2)N2CCCC2)c1 (configuration not stated)	9	2	0	8245	1.2	4	-21
O=C(CSc1ccc(-c2ccccc2)nn1)N1CCCc2ccccc21	3	0	-12	6974	17	8	-23
COc1cccc(N2CCN(S(=O)(=O)c3ccc4ccccc4c3)CC2)c1	8	-9	nt	4243	-1.5	5	1
CCN1C(=O)N(c2ccc(C(C)=O)cc2)S(=O)(=O)c2ccccc21	10	4	-4	3469	1.6	5	-4
Cc1ccc(CNS(=O)(=O)c2ccc(-c3cnc(C4CC4)o3)cc2)cc1	-3	-10	-1	4927	8.5	-5	-24
COC(=O)c1ccc(NC(=O)c2ccc3nccnc3c2)cc1	-10	0	-8	3529	2.2	-2	-22
COc1ccc(Cc2nnc(NC(=O)c3ccc(OC)c(OC)c3)s2)cc1OC	10	6	3	4416	6.3	5	-25
COc1ccccc1-c1ccc(SCC(=O)NCc2ccc3c(c2)OCO3)nn1	9	7	-11	4196	-1.1	14	-14
COc1ccc(-c2sc(Nc3ccccc3)n[n+]2-c2ccc(F)cc2)c(C)c1C	1	14	11	3517	-3.2	-43	5

Additional records.
SMILES	Mtb hypoxia inh	Mtb hypoxia inh growth	BJeLR lethal	Autofluor counter	RN4220 kill	ugtP null kill	PrP 5UTR inh
CCCCN1C(=O)CCC(C(=O)O)C1c1ccc(OC)cc1 (configuration not stated)	1	10	12	2415	5.1	13	-11
COc1cccc(NC(=S)N(CCN(C)C)Cc2cccs2)c1	-5	2	25	3148	-1.4	-3	-19
Cc1nn(C)c(C)c1/C=N/NC(=O)CCn1cc([N+](=O)[O-])cn1	nt	nt	8	2062	nt	nt	-7
CC(COc1ccc(C(C)C)cc1)NC(=O)c1ccc(Br)o1 (configuration not stated)	nt	nt	9	5879	nt	nt	-4
O=C(CCCCCn1c(=S)[nH]c2ccc(Br)cc2c1=O)NCC1CCCO1 (configuration not stated)	15	10	-7	8774	3.2	4	-13
CCN(CC)CCCNC(=O)c1cc2c(=O)n(CC)c3ccccc3c2s1	-10	13	17	3585	-3.3	2	-10
CCC(C)C(NC(=O)/C(=C\c1ccccc1)NC(=O)c1ccc(OC)cc1)C(=O)O (configuration not stated)	nt	nt	9	5002	nt	nt	-27
O=C1[C@@H]2[C@@H]3C[C@@H]([C@H]4ON=C(c5ccc(Cl)cc5)[C@@H]34)[C@@H]2C(=O)N1c1ccc2c(c1)OCO2	10	5	4	2140	1.2	-7	-26
CCOC(=O)C1CCCN(c2c(N3CCOCC3)c(=O)c2=O)C1 (configuration not stated)	15	7	2	4540	1.0	0	-5
O=C(CN1CCN(Cc2ccccc2Cl)C1=O)N1CCCCCC1	nt	nt	-2	2092	1.8	-4	-6
CCc1nn2c(N3CCOCC3)cc(C)nc2c1-c1ccc(F)cc1	-8	9	-2	4836	3.7	0	9
COc1ccc(OC)c(-c2csc(NC(=O)CSCc3c(C)noc3C)n2)c1	12	-3	4	6066	2.9	8	-14
CCOc1cc(C(=O)Nc2ccc(N3CCN(C(C)=O)CC3)cc2)cc(OCC)c1OCC	4	5	-1	3397	3.0	9	-28
